CDC25B CDK2 inh – human CDC25B-CDK2/CyclinA binding inhibition; P30305+P24941; HTRF CDC25B-CDK2/CyclinA binding, anti-His/anti-Flag; hits give high values; z-score (concentration not given with the values); 0.72% of 94,000 active;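 note: score is relative to mean and SD of negative controls; strong numbers were not always called active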
HIV TAR-Tat – HIV-1 TAR-Tat binding disruption; z-score (test concentration not listed); AID 1259389; HIV-1 TAR RNA, Tat peptide displacement FRET; hits give high values; 0.6% of 100,000 active;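 note: score is relative to mean and SD of negative controls; some compounds called inactive have numbers as strong as hits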
Numbers without * were called inactive; . = not tested or not shown.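 Rule for the calls: active = z-score from 3 up in half or more of its runs; inactive = the rest.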

SMILES | CDC25B CDK2 inh | HIV TAR-Tat
CC(C)CN(CC(C)C)c1c(-c2ccc(Cl)cc2)c(=O)c1=O | . | -0.54
CN(C)S(=O)(=O)c1ccc2c(c1)cc(C(=O)O)n2C | 0.81 | 1.02
CSc1ccc(C2c3[nH]c4ccccc4c3CCN2C(=O)C2CC2)cc1 (stereo unspecified) | . | 2.54
COCCCNC(=O)C1CCCN1c1nnc(N2CCCC2=O)s1 (stereo unspecified) | 0.34 | 2.37
COc1ccc(Cn2cc3c(-c4ccccc4)nnc-3c3cc4c(cc32)OCCO4)cc1 | 7.36* | -4.89
CCC(CC)c1nc2cc(OC)c(OC)cc2c(=O)o1 | 0.9 | 1.71
Cc1nnc(NC(=O)CSc2ccc3nnc(-c4ccc(F)cc4)n3n2)s1 | -0.59 | .
CCOc1ccc(-c2nc(COc3ccccc3-c3nnc(-c4ccccc4)o3)c(C)o2)cc1 | . | 1.28
O=C1O[C@@H]2C[C@H]3C[C@@H]2[C@@H]1[C@H]3C(=O)N(C1CCCCC1)C1CCCCC1 | -1.24 | 4.94
O=C(Nc1cnccn1)c1ccc(Cl)cc1 | -0.9 | .
Cc1ccccc1-n1c(C)c(C)c2c1ncn1nc(-c3cccs3)nc21 | -0.99 | 0.57
CCOC(=O)Cn1c(=O)oc2cc(S(=O)(=O)NCc3cccs3)ccc21 | -0.91 | 0.88

3 entries picked at random from those above, as already listed:
SMILES | CDC25B CDK2 inh | HIV TAR-Tat
Cc1ccccc1-n1c(C)c(C)c2c1ncn1nc(-c3cccs3)nc21 | -0.99 | 0.57
O=C1O[C@@H]2C[C@H]3C[C@@H]2[C@@H]1[C@H]3C(=O)N(C1CCCCC1)C1CCCCC1 | -1.24 | 4.94
CCOC(=O)Cn1c(=O)oc2cc(S(=O)(=O)NCc3cccs3)ccc21 | -0.91 | 0.88

Entries shown so far containing an aryl methoxy group (two):
SMILES | CDC25B CDK2 inh | HIV TAR-Tat
COc1ccc(Cn2cc3c(-c4ccccc4)nnc-3c3cc4c(cc32)OCCO4)cc1 | 7.36* | -4.89
CCC(CC)c1nc2cc(OC)c(OC)cc2c(=O)o1 | 0.9 | 1.71

(continued)
SMILES | CDC25B CDK2 inh | HIV TAR-Tat
COc1ccc(C2Nc3ccc(C(=O)c4ccccc4)cc3NC3=C2C(=O)CCC3)c(OC)c1 (stereo unspecified) | -0.88 | 1.08
Cc1csc(NC(=O)c2cc3ccc4cccnc4c3[nH]2)n1 | . | 0.81
Cc1cc(C)n(-c2nc3ccccc3nc2Nc2ccc3c(c2)OCO3)n1 | -1.61 | 0.32
COc1ccc(OC)c(S(=O)(=O)N2CCCC2c2cc(C)no2)c1 (stereo unspecified) | . | 3.29
CC(=O)Nc1ccc(Nc2ncnc3ccc(Br)cc23)cc1 | 0.22 | .
Fc1ccc(-c2noc3ncnc(N4CCN(c5ccc(F)cc5)CC4)c23)cc1 | . | 0.27
COc1cccc(C2CC(=O)Nc3c2cnn3-c2nc3ccccc3s2)c1OC (stereo unspecified) | . | 2.23
CC(C)(C)NC(=O)Cn1c(=O)n(CC(=O)NC(C)(C)C)c2ccccc21 | -1.49 | 0.79
C=CCn1c(=S)sc2c(=O)[nH]c(C)nc21 | -1.13 | .
Cc1cc(CNC(=O)NCCC(C)C)c(C)n1-c1ccc(Cl)cc1 | . | -1.16
COC(=O)CSC1=C(C#N)C(c2ccc(Cl)cc2)C(C(=O)OC(C)(C)C)=C(C)N1 (stereo unspecified) | -1.16 | .
O=C1C2CCCN2C(=S)N1C1CCCCC1 (stereo unspecified) | -0.4 | .
c1ccc(-c2noc(NCCCN3CCN(c4ccccc4)CC3)n2)cc1 | . | 0.78
NC(=O)C1CCN(C(=O)CSc2ccsc2[N+](=O)[O-])CC1 | -0.41 | 1.27
Cc1ccc(C(=O)N2N=C3c4ccccc4S(=O)(=O)N3C2N2CCCCC2)cc1 (stereo unspecified) | -1.35 | .
CCCOC(=O)C1=C(C)NC2=C(C(=O)CC(c3ccccc3)C2)C1c1ccc2c(c1)OCO2 (stereo unspecified) | -1.06 | 0.39
Cc1c(C(=O)O)sc2ncnc(Nc3ccccc3F)c12 | . | 21.4*
COc1ccc(C2C3(C#N)C(N)=NC4(OCCO4)C23C#N)cc1 (stereo unspecified) | 0.83 | .
O=C(NC1CCCC1)c1ccc(N2C(=O)CCS2(=O)=O)cc1 | -1.38 | 0.53
O=C(C1COc2cc(S(=O)(=O)NCCC3=CCCCC3)ccc2O1)N1CCOCC1 (stereo unspecified) | . | 0.65
CN1C(=O)C(C)(C)c2cc(S(=O)(=O)N(C)CC(=O)N3CCN(c4ccccn4)CC3)ccc21 | . | 2.5
CC(=O)c1ccc(-n2nnc3c(sc4nc(C)cc(C)c43)c2=O)cc1 | -0.8 | .
COc1ccc(C2C(C(=O)c3cccs3)=C(O)C(=O)N2c2nncs2)cc1OC (stereo unspecified) | 0.6 | -3.78
COc1ccc(N2CC34C=CC(O3)C(C(=O)OCc3ccccc3)C4C2=O)cc1 (stereo unspecified) | 0.17 | -0.22
Cc1oc(-c2ccccc2)nc1CN1N=NC2C(=O)N(c3cccc(Cl)c3)C(=O)C21 (stereo unspecified) | . | 1.46
Nc1cccc(-c2cc(C(=O)O)c3ccccc3n2)c1 | -1.9 | -1.1
Cc1cc(C)c2nc(NC(=O)c3snnc3C)sc2c1 | -0.57 | 0.04
Cc1nnc(SCC(=O)N2c3ccccc3CCc3ccccc32)s1 | -2.26 | .
Cn1c(SCC(=O)c2c[nH]c3ccccc23)nnc1C1CCCCC1 | -1.34 | 1.81
Cc1nc2sc(C(c3cccs3)N3CCC(C(N)=O)CC3)c(O)n2n1 (stereo unspecified) | -0.49 | .
CN1C(=O)C(C)(C)c2cc(S(=O)(=O)N3CCC(C(=O)N4CCCC4)CC3)ccc21 | -0.93 | 0.03
CC(C)(C)Cc1nnc(NS(C)(=O)=O)s1 | -1.15 | -0.81
COC(=O)CSc1nc2ccccc2c(=O)n1-c1ccccc1 | -3.32 | .
CC(C)CCNC(=O)Cn1ncc2ccsc2c1=O | -1.98 | -1.82
COC(=O)C1=C(C(=O)OC)SC(=C2C(=S)C(C)(C)Nc3cc(C)ccc32)S1 | 13* | 1.51
CC(C)OCCCNC(=O)Cn1cc2c(n1)CCCCC2 | -2.02 | .
COc1ccccc1Oc1ncnc2nc[nH]c12 | 1.02 | 0.15
COCCn1c(CN2CCN(c3ccccc3F)CC2)nc2c1c(=O)n(C)c(=O)n2C | -0.4 | -0.24
CCOC(=O)c1c(S(=O)(=O)N2CCCC(C)C2)c(C)n(C)c1C (stereo unspecified) | . | 1.77
O=C(CCc1nnc2ccc(N3CCOCC3)nn12)Nc1ccc2c(c1)OCCO2 | . | 0.6
CCOC(=O)c1c(NC(=O)c2ccc(C)o2)sc2ccccc12 | . | 1.01
Cc1ccc(C2=NN(C(=O)CCC(=O)O)C(c3cc4cc5c(cc4nc3Cl)OCO5)C2)cc1 (stereo unspecified) | -1.36 | .
CN(CC(=O)NCc1cccs1)c1nnc(N2CCCC2=O)s1 | -2.47 | 1.07
CCc1nnc2c(N3CCN(c4ccccn4)CC3)nc3ccccc3n12 | . | 0.51
O=C1CC(c2cccc(Br)c2)n2ncnc2N1 (stereo unspecified) | 0.28 | .
Cc1onc(-c2c(F)cccc2Cl)c1NC(=O)Oc1ccc(CC#N)cc1 | 0.51 | .
Nc1ccc(-c2nc(-c3cccc(Br)c3)co2)cc1 | . | 0.07
COc1ccc(NC(=O)c2nn(-c3ccccc3)ccc2=O)cc1 | -1.43 | -0.55
CNC(=O)Cc1coc2ccc3ccccc3c12 | -2.35 | 1.4
NS(=O)(=O)c1ccc(CCNc2nccn(Cc3ccc(F)cc3)c2=O)cc1 | . | -0.51
O=C1CCSc2ccc(S(=O)(=O)NC3CCCC3)cc2N1 | . | 0.34
Clc1ccccc1CNCCCSc1nnnn1-c1ccccc1 | -1.05 | 7.98
COCCOC(=O)C1=C(C)N=C2SCCC(=O)N2C1/C=C/c1ccccc1 (stereo unspecified) | -0.2 | 0.25
CCOC(=O)c1ccc(-c2ccc(/C=C3\C(=O)NC(=O)C(C#N)=C3C)o2)cc1 | -0.94 | -9.26
CC(=O)CCC1C(C#N)C(C(C)C)CCC1(C)OC(C)=O (stereo unspecified) | -0.5 | .
COc1ccc(S(=O)(=O)Nc2cc3[nH]c(=O)[nH]c3cc2C)cc1OC | . | 0
COc1ccc(S(=O)(=O)[C@H]2CS(=O)(=O)C[C@@H]2N2CCN(c3ccccc3)CC2)cc1 | -1.88 | 0.5
O=c1c2c(nc3n1CCCCC3)sc1c(O)cccc12 | -2.04 | .
O=C(COc1ccccc1F)Nc1ccc(OCc2cc(=O)n3c4c(sc3n2)CCCC4)cc1 | -0.5 | -0.65
Cc1nc(-c2cccs2)sc1NC(=O)O/N=C(\N)c1ccc(Cl)cc1 | -2.23 | .
(continued)
SMILES | CDC25B CDK2 inh | HIV TAR-Tat
Cc1noc2ncnc(N3CCCC(C(=O)N4CCN(C5CCCCC5)CC4)C3)c12 (stereo unspecified) | . | 1.96
COc1cc(C2c3c(oc4ccc(F)cc4c3=O)C(=O)N2Cc2ccc3c(c2)OCO3)ccc1O (stereo unspecified) | -0.52 | 0.73
CN1CCN(c2ncnc3c2sc2nc(-c4ccccc4)c4c(c23)CC(C)(C)OC4)CC1 | -2.76 | -1.15
Cc1csc2nc(COC(=O)Cc3ccccc3)cc(=O)n12 | . | 1.13
CCSc1sc(CC)cc1C1C(C(=O)Nc2cccnc2)=C(C)NC2=C1C(=O)CC(C)(C)C2 (stereo unspecified) | -2.07 | -0.39
COC(=O)c1cc2sc(C)cc2n1Cc1nc(-c2cccs2)oc1C | -1.26 | 1.72
Cc1ccc(C)c(Oc2coc3cc(OC(=O)c4ccco4)ccc3c2=O)c1 | -3.03 | -0.01
CCOC(=O)c1c(NC(=O)CN2CCCCC2)sc2c1CCCCC2 | 2.26 | .
CCc1ccc2c(c1)C(O)(c1c[nH]c3ccccc13)C(=O)N2 (stereo unspecified) | . | 1.95
CC(=O)N1CCN(c2csc3ccc(Cl)cc3c2=O)CC1 | . | 0.26
Nc1nonc1/C(=N/O)N1CCOCC1 | -0.97 | .
CCc1nnc(NC(=O)c2cc3ccccc3c(=O)s2)s1 | -0.43 | 0.78
Nc1cc(-c2ccccc2)n(C(=O)Nc2ccc(Cl)cc2)n1 | -2.59 | .
O=S(=O)(CCN(Cc1ccc(F)cc1)S(=O)(=O)c1ccccc1)N1CCNCC1 | . | 1.66
COc1cccc(C2C(C#N)=C(N)Oc3cc(C)oc(=O)c32)c1 (stereo unspecified) | 3.01 | .
Cn1c(=O)c2c(nc(NC3CCCCC3)n2CC(O)COc2ccccc2)n(C)c1=O (stereo unspecified) | -2.52 | 0.19
Cc1nc2ncnn2c(C)c1CCC(=O)NC(C)c1ccc2c(c1)OCCO2 (stereo unspecified) | -1.17 | .
CCc1ccc(-n2ccc(=O)c(C(=O)Nc3nnc(CC)s3)n2)cc1 | -0.84 | -0.25
Cc1ccc(-c2c(Nc3ccc(Cl)cc3)c(=O)c2=O)cc1C | . | 0.75
Cc1ccc(C)c(NS(=O)(=O)c2cc(-c3cnc(C)o3)ccc2C)c1 | . | 1.14
Cc1cc(C)n(-c2nc3ccccc3nc2N2CCN(C(=O)c3ccco3)CC2)n1 | 0.32 | 1.02
CCCCSC1=C(C#N)C(=O)NC(c2ccco2)S1 (stereo unspecified) | -1.94 | -0.92
CC1CN(C(=O)Nc2cccc3c2CCCC3)c2ccccc2S1 (stereo unspecified) | . | 2
Cc1ccc(NS(=O)(=O)c2ccc(Cl)cc2)c(N)c1 | -1.75 | .
O=C(NCc1nc(-c2ccc3c(c2)ncn3C2CCCC2)no1)c1ccco1 | . | -0.84
CC(=O)N1CC(C)Oc2ccc(S(=O)(=O)N3CCC(c4ccncc4)CC3)cc21 (stereo unspecified) | . | 0.32
CCCCOc1ccc2c(C(F)(F)F)cc(=O)oc2c1C | -2.07 | .
CC(=O)NC1=NN(C(C)=O)C(c2ccc(Sc3ccc(Cl)cc3)o2)S1 (stereo unspecified) | -0.98 | 0.69
Cc1nc(N2CCCC2)c2c(C(=O)Nc3ccc(F)cc3)c(C)oc2n1 | . | -0.59
COc1ccc(-c2nc3c(C#N)c[nH]n3c2NC2CCCC2)cc1 | -0.79 | -0.81
Cc1cc(NC2c3ncccc3C(=O)N2C2CCCCC2)ccc1Br (stereo unspecified) | -1.74 | 2.78
CNc1nc(C23CC4CC(CC(C4)C2)C3)ns1 | -2.4 | .
CC(C)c1ccc2c(c1)-c1ccccc1S(=O)(=O)N2CC(=O)NCC1CCCO1 (stereo unspecified) | -2.14 | -0.55
Cn1c2ccccc2c2cnn(CC(=O)NCc3ccco3)c(=O)c21 | -0.59 | 1.32
Cn1c(-c2ccc(Cl)cc2)cnc1NCc1ccc(F)cc1 | -1.1 | -0.41
CC1=C(c2ccc(C)c(C)c2)S(=O)(=O)NC1=NCCN1CCOCC1 | -1.82 | -1.03
O=C(NCC1CCCCC1)C1CCN(c2cnccn2)CC1 | -1.01 | 0.88
O=S(=O)(NCCc1ccccn1)c1ccc(-c2ccon2)s1 | 0.6 | .

Laid out differently: 4 of the compounds above.
SMILES: CNc1nc(C23CC4CC(CC(C4)C2)C3)ns1
  CDC25B CDK2 inh: -2.4; HIV TAR-Tat: .
SMILES: CC(C)c1ccc2c(c1)-c1ccccc1S(=O)(=O)N2CC(=O)NCC1CCCO1 (stereo unspecified)
  CDC25B CDK2 inh: -2.14; HIV TAR-Tat: -0.55
SMILES: Cn1c2ccccc2c2cnn(CC(=O)NCc3ccco3)c(=O)c21
  CDC25B CDK2 inh: -0.59; HIV TAR-Tat: 1.32
SMILES: Cn1c(-c2ccc(Cl)cc2)cnc1NCc1ccc(F)cc1
  CDC25B CDK2 inh: -1.1; HIV TAR-Tat: -0.41
